VACV Venus inh: qHTS for Stage-Specific Inhibitors of Vaccinia Orthopoxvirus: Venus Reporter Primary qHTS | Potency, µM (titrated, usually from 36.5 µM), without a hit: at the highest dose activity change, negative = inhibition, actives largely listed as inhibitors | Vaccinia virus Venus reporter expression, fluorescence | 0.46% of 330,000 active; active means well fitted inhibition curve with a large enough effect; inconclusive means small, poorly fitted or top-dose-only effect; inactive means no such curve, though single readings can be large or run the other way; tested in A549 cells; note: nearly all actives have a fitted effect of over 30% in size; inactives centre near -10
VACV mCherry inh: qHTS for Stage-Specific Inhibitors of Vaccinia Orthopoxvirus: mCherry Reporter Primary qHTS | AID 720579, 2013 | 0.63% of 310,000 active | Potency, µM (highest dose often 36.5 µM), inactives show at the top dose activity change, negative = inhibition, usual class: inhibitors | Vaccinia virus mCherry reporter infection, fluorescence; about a quarter of the inactives have no number; active = well fitted inhibition curve with a large enough effect; inconclusive = small, poorly fitted or top-dose-only effect; inactive = no such curve, though single readings can be large or run the other way; tested in A549 cells; note: nearly all actives have a fitted effect of over 35% in size; inactives centre near -10
The depositor's hits bear a star; i = inactive; ? = inconclusive; / = not tested or not shown; [ ] = dose if it differs, or a comment. % is set by controls: 0 for no effect and ±100 for the full control effect; potency is the fitted concentration of half-maximal effect.

Structure	VACV mCherry inh	VACV Venus inh
COCCn1nnnc1C(C(C)C)N1CCOCC1 (stereo not given)	-2%	-16%
CCOc1ccc(N(CC(=O)N2CCCCCC2)S(=O)(=O)c2ccc(C)cc2)cc1	-3%	-1%
N#CC1(NC(=O)CSc2nnc(C3CC3)n2N)CCCCC1	i	-7%
COc1ccc(C(NC(=O)C2CCN(CCOc3ccc(Cl)cc3Cl)CC2)c2ccccn2)cc1 (stereo not given)	-3%	-8%
O=CN1CCN(C2CC(=O)N(c3ccc(Br)cc3)C2=O)CC1 (stereo not given)	/	-1%
CCN(C(=O)c1cnc(OC)cc1C(F)(F)F)c1ccc(Cl)cc1Cl	i	-9%
COc1ccc(S(=O)(=O)Nc2ccc3c(c2)C(=O)N([C@H](C)CO)C[C@H](C)[C@@H](CN(C)C(=O)Nc2c(C)noc2C)O3)cc1	-8%	-1%
CN(c1ccccc1C(=O)N1CCOCC1)S(C)(=O)=O	/	-11%
Cc1ccc(S(=O)(=O)NCCC(=O)O)cc1	-9%	0%
COc1ccc(C(CNS(=O)(=O)c2ccc(NC(C)=O)c(OC)c2)N2CCCC2)cc1 (stereo not given)	-7%	7%
CCc1ccc(C(C(=O)NC2CCCC2)N(Cc2cccnc2)C(=O)c2csnn2)cc1 (stereo not given)	-16%	-2%
Cc1ccc(CNC(=O)c2sc3nc4n(c(=O)c3c2C)CCCC4)cc1	0%	-7%
CCOc1cccc(C2/C(=C(\O)c3ccc4c(c3)OCCO4)C(=O)C(=O)N2Cc2ccncc2)c1 (stereo not given)	i	-9%
C/C(=N/NC(=O)c1cnccn1)c1cccs1	i	-16%
COc1ccc(NC(=O)CCCn2c(=O)c3sccc3n(Cc3ccccc3C)c2=O)cc1	-24%	-22%
CCOC(=O)Cc1csc(NC(=O)COc2ccc3ccccc3c2)n1	-8%	3%
O=C(CN1CCN(Cc2ccccc2Cl)CC1)N/N=C/C=C/c1ccccc1[N+](=O)[O-]	i	-13%
C#CCN(C)Cc1ccccc1	i	-10%
Cc1cc(C)c(NS(=O)(=O)c2ccccc2)c(C)n1	-13%	-13%
COC(=O)c1ccccc1Sc1c(/C=N/OC(=O)c2ccccc2)c(C(F)(F)F)nn1C	/	-2%

4 entries out of the list, arranged by SMILES length, ascending.
Structure	VACV mCherry inh	VACV Venus inh
CN(c1ccccc1C(=O)N1CCOCC1)S(C)(=O)=O	/	-11%
Cc1ccc(CNC(=O)c2sc3nc4n(c(=O)c3c2C)CCCC4)cc1	0%	-7%
COc1ccc(C(CNS(=O)(=O)c2ccc(NC(C)=O)c(OC)c2)N2CCCC2)cc1 (stereo not given)	-7%	7%
O=C(CN1CCN(Cc2ccccc2Cl)CC1)N/N=C/C=C/c1ccccc1[N+](=O)[O-]	i	-13%

Additional compounds
Structure	VACV mCherry inh	VACV Venus inh
Cc1ccc(Nc2nnc(-c3ccc(C)c(S(=O)(=O)NCc4nc5ccccc5[nH]4)c3)c3ccccc23)cc1	?	?
O=C(O)C(Cc1ccccc1)N1C(=O)CCC1=O (stereo not given)	-8%	5%
CCc1cccc(NC(=O)COC(=O)c2cc(=O)c3ccccc3o2)c1	-17%	-12%
C=CCNc1nc(N)c([N+](=O)[O-])c(NCCO)n1	-21%	-14%
O=C(O)Cc1ccc2[nH]c3ccc(CC(=O)O)cc3c2c1	/	-20%
Cc1nnc(SCC2=C(C(=O)O)N3C(=O)C(NC(=O)COc4ccccc4)C3SC2)s1 (stereo not given)	-2%	8%
COc1ccc(CC(=O)Nc2cc(-c3cn4cccnc4n3)ccc2C)cc1OC	-7%	-19%
Cc1ccc(C)c(NC(=O)C2(C)CCCN2C(=O)C(C)C)c1 (stereo not given)	-13%	7%
CN(CCCC1CCCC1)C(=O)CC1C(=O)NCCN1Cc1ccc(F)cc1 (stereo not given)	-4%	-21%
O=[N+]([O-])C(=C1SCCS1)C(=C(Cl)Cl)N1CCCCC1	i	0%
CC1CN(C(=O)Nc2ccc3c(c2)OCCO3)CC(C)O1 (stereo not given)	4%	-3%
CC1(C)C(C=C(Cl)Cl)C1C(=O)Nc1ccc(S(=O)(=O)Nc2ncccn2)cc1 (stereo not given)	-6%	-1%
COc1cc(-c2cc(C)c3c(OC)ccc(OC)c3n2)cc2c1OCCN(C(=O)CCn1ccc(C)n1)C2	-12%	-2%
CCN1CCCC1CNC(=O)c1cc2c(OC)c(OC)c(OC)cc2[nH]1 (stereo not given)	-9%	0%
CCOCCc1c(O)[nH]c(=S)[nH]c1=O	i	-10%
Cc1cc(C)n(C(=O)c2ccc(NC(=O)CC(C)C)cc2)n1	-17%	-11%
C=CC[C@@H](CC(=O)N(CCO)Cc1ccccc1)C(=O)N[C@H](COC(=O)[C@@H](CC=C)CC(=O)OC(C)(C)C)C(C)(C)C	-18%	-26%
CSc1sc(C#N)c2c1/C(=N\O)CCC2	-22%	0%
CCOc1ccccc1NC(=O)C(CC(C)C)NS(=O)(=O)c1ccc2c(c1)CCN2C(C)=O (stereo not given)	1%	-4%
COc1ccc(/C=C2\C(=O)NC(=O)N(Cc3ccccc3)C2=O)c(OC)c1OC	0%	-10%
O=S(=O)(Nc1ccc2c(c1)OCO2)c1ccc(Br)s1	-1%	-2%
Cc1cccn2c(=O)c3cc(C(=O)NCC4CCCO4)c(=N)n(Cc4cccnc4)c3nc12 (stereo not given)	i	-8%
CC1CC(C)(C)NC(=S)N1CCC(=O)NCc1ccc(Cl)cc1 (stereo not given)	-4%	1%
COc1cc(Nc2ncnc(N)n2)cc(OC)c1	0%[7.34 µM]	-2%[7.34 µM]
O=C(NCc1n[nH]c(=S)n1Cc1ccccc1)c1ccc(Cl)cc1Cl	i	-11%
COc1cc(NC(=O)CSc2nnc(C)s2)cc(OC)c1OC	/	-21%
CN(C(=O)c1ccncc1)C1CCCN(Cc2ccccc2F)C1 (stereo not given)	i	-14%
CCCCn1nc(C(=O)N(C)CC(=O)Nc2cccc(F)c2)c2ccccc2c1=O	i	-12%
CC(C)CC(=O)Nc1ccc(C(=O)COc2ccc(-c3nnco3)cc2)cc1	-6%	-5%
CCOC(=O)CSC1=N/C(=C/c2ccc(-n3cncn3)cc2)C(=O)N1C(C)=O	-4%	-2%
c1ccc(CCNc2c3c(nc4ncnn24)CCC3)cc1	-27%	-24%
O=C(Nc1ccccc1C(=O)Nc1nncs1)c1ccccc1	-2%	-22%
CN(C)c1ccc(C(=O)N2CCN(c3cc(C(F)(F)F)nc4ccccc34)CC2)cc1	-8%	-26%
COc1cccc(C(=O)CSc2nnc(CNS(=O)(=O)c3ccc(C)cc3)n2C)c1	-13%	0%
COc1ccccc1OCc1ccc(C(=O)N2CCCCC2)o1	38%[activator]	-9%
CCOc1cc(CN2CCN(C(=O)CC(C)C)CC2)ccc1OC	/	-13%
O=c1c2sccc2nc(SCc2cc(=O)n3ccccc3n2)n1-c1ccc(Br)cc1	-25%	?
CC(=O)C1=C(c2ccc(Br)cc2)N(C(C)=O)n2c(nnc2C2CCCCC2)S1	-14%	-9%
COc1cccc(Oc2nc(C)nc3c2oc2ccccc23)c1	-11%	-14%
CN1CCC(NC(=O)C2(C)CCN2Cc2ccc3ccccc3c2)CC1 (stereo not given)	15%	7%
Cc1ccc2c(c1)N(CC(=O)N1CCOCC1)C(=O)CO2	-7%	0%
Cc1cc(NS(=O)(=O)c2ccc(NC(=O)COc3ccc(Br)cc3C)cc2)no1	-8%	2%
CCOc1ccc(CNC(=O)CCS(=O)(=O)c2cc3c(cc2Cl)NC(=O)CO3)cc1OC	-13%	-8%
Cc1ccc(OC(=O)CCC(=O)NC(C)c2ccccc2)cc1 (stereo not given)	-14%	-12%
COc1ccc(CCN2C(=O)CC(C(N)=O)SC2=Nc2ccccc2)cc1OC (stereo not given)	-14%	-9%
CCOC(=O)CN(C(=O)CSc1nnc(CNc2ccc(F)cc2)o1)c1ccccc1	-14%	-4%
C#CCOCCOCCOCCNc1nc(N2CCN(C(=O)CCCCCCCCCCNC(=O)[C@H](CO)n3cc(CCCSC)nn3)CC2)nc(N2CCN(C(=O)CCCCCCCCCCNC(=O)[C@H](CCCN=C(N)N)n3cc(C[C@@H](C)CC)nn3)CC2)n1	-19%	11µM*
CC(C)C[C@H](NC(=O)c1nc[nH]c1C(=O)NC(c1ccccc1)c1ccccc1)C(=O)OC(C)(C)C	?	?
O=C(CSc1nc2ccc(Cl)cc2[nH]1)Nc1ccc2[nH]c(=O)[nH]c2c1	i	-4%
COc1ccc(CCNCc2cc(OC)cc(OC)c2)cc1	-6%	-8%
COc1ccc([N+](=O)[O-])cc1/C=N/NC(=O)c1nonc1N	9%	3%
Cc1cccc(NC(=O)N[C@@H](C)C(=O)O)c1	/	-7%
COC(=O)[C@H]1C[C@H](OC(=O)NCc2ccccc2)[C@@]2(O)CN(S(=O)(=O)c3ccc(C)cc3)CC2[C@H]1C(=O)OC (stereo not given in full)	-6%	-15%
CS(=O)(=O)N(CC(=O)N1CCN(Cc2ccc3c(c2)OCO3)CC1)C1CCCCC1	1%	-11%
COc1ccc(C(=O)NN2CCCCC2)cc1OC	-3%	-9%
Cc1nn(-c2cccc(Cl)c2)c2nc(-c3ccco3)cc(C(=O)O)c12	-7%	-4%
COc1cccc(NC(=O)C2C3C=CC4(O3)C2C(=O)N(CCCN2CCCCC2)C4C(=O)NC2CCCCC2)c1 (stereo not given)	-6%	-4%
COc1ccc(NS(=O)(=O)c2cc(Br)cc3c2N(C(=O)C2CC2)CC3)cc1OC	-19%	-29%
COC(=O)c1ccccc1NC(=O)CN1CCc2ccccc2C1	-15%	-11%
COc1cc(-c2nc(S(=O)(=O)c3ccc(Cl)cc3)c(N(C)C)o2)cc(OC)c1OC	/	-13%

More results
Structure	VACV mCherry inh	VACV Venus inh
Cc1ccc(S(=O)(=O)NC(=O)c2cc(C)n(CCCN3CCOCC3)c2C)cc1	/	-8%
Cc1ccc(C#N)c(SCc2ccccc2[N+](=O)[O-])n1	-2%	-19%
COc1ccc(C(=O)/C(=C/O)N=Nc2ccc(F)cc2)cc1	-22%	-18%
Cc1cccc(C2=NN(c3ccccc3)[C@H](CO)[C@H]2c2ccc(Cl)cc2)c1	-5%	-17%
CC(=O)OC(C(=O)NCS(=O)(=O)c1ccc(C)cc1)c1cccnc1 (stereo not given)	-13%	-12%
O=c1c2sccc2n(Cc2cc(=O)n3cc(Cl)ccc3n2)c(=O)n1-c1ccccc1	-11%	2%
CCN(Cc1ccccc1OC)CC1CCCN(CCc2cccc(OC)c2)C1 (stereo not given)	-19%	-17%
COc1ccc(N2CC(C(=O)N[C@@H](CC(C)C)C(=O)NC3CCCC3)CC2=O)cc1 (stereo not given in full)	i	-14%
CC(=O)Nc1ccc(S(=O)(=O)NCCC(=O)NC2CCCCCC2)cc1	-12%	-10%
COc1cc2ccccc2cc1C(=O)Nc1cccc(-c2nc3ccccc3o2)c1	-14%	-6%
Nc1nc2ccc(Cl)cc2cc1C(=O)NCCc1ccc(Cl)cc1Cl	1%	-12%
CCOc1ccc(C(=O)NCC(=O)OCC(=O)N(C)CC(=O)Nc2ccccc2CC)cc1OCC	-8%	-16%
Cc1ccn2cc(CCNC(=O)CC(C)(C)C)nc2c1	/	-2%
CC(C)(C)NC(=O)C(c1ccncc1)N(CC1CCCO1)C(=O)Cn1nnc(-c2ccc(F)cc2)n1 (stereo not given)	-15%	0%
CCCc1nc2oc3c(OC)ncnc3c2c2c1COC(C)(C)C2	i	-8%
COc1ccc(N(C(=O)c2ccc(OC)c(OC)c2)S(=O)(=O)c2ccc(Cl)cc2)cc1	-3%	10%
CC1(C)Cc2nc3sc(C(N)=O)c(N)c3cc2CO1	-13%	-5%
CCn1c(CN2CCOCC2)nnc1SCC(=O)Nc1ccc(C(C)=O)cc1	-7%	-5%
Cc1ccc(-n2nnnc2SCn2nnc3ccccc3c2=O)cc1	/	-19%
Cc1cc2cc(CNC(=O)c3cccc([N+](=O)[O-])c3)ccc2[nH]1	-6%	-12%
COC(=O)c1c(NC(=O)COC(=O)CNC(=O)c2cccc(OC(F)F)c2)sc(C)c1C	-9%	-20%
COCCn1nnnc1C(c1cccs1)N1CCN(c2ccccc2)CC1 (stereo not given)	-6%	-20%
Cc1ccc(/C=C2\C(=O)NC(=S)N(c3ccccc3F)C2=O)s1	466%[activator]	/
Cc1c(-c2nsc(NC(=O)c3cccs3)n2)nnn1-c1ccc(F)cc1	-13%[7.34 µM]	-3%[7.34 µM]
Cc1cc(Nc2ccccc2F)n2nc(Cc3ccc(Cl)cc3)nc2n1	-14%	-6%
CCCCNC(=O)NNC(=O)COc1cccc(C)c1C	0%	5%
Cc1ccccc1C(=O)c1c[nH]c(C(=O)NCCCn2ccnc2)c1	-10%	1%
CC[C@@H](C(=O)n1nc(C)cc1C)[C@H](NS(=O)(=O)c1ccc(C)cc1)c1ccccc1	/	-29%
COc1ccc(F)cc1S(=O)(=O)NCCc1csc(-c2ccc(Cl)cc2)n1	-11%	-4%

Assay outcomes (PubChem BioAssay)
